From PubChem BioAssay
VDR inhibitor = vitamin D3 receptor (human) inhibition. Potency, µM, for the others: max response, negative = inhibition, most hits filed as inhibitors. actives 0.93% (n = 400,000). VDR-SRC2-3 peptide fluorescence polarization, 2 h. P11473; active means well fitted inhibition curve with a large enough effect; inconclusive means small, poorly fitted or top-dose-only effect, or another doubt; inactive means no such curve, though single readings can be large or run the other way; further: series mostly up to about 120 µM
Target sequence (P11473 whole entry, looked up): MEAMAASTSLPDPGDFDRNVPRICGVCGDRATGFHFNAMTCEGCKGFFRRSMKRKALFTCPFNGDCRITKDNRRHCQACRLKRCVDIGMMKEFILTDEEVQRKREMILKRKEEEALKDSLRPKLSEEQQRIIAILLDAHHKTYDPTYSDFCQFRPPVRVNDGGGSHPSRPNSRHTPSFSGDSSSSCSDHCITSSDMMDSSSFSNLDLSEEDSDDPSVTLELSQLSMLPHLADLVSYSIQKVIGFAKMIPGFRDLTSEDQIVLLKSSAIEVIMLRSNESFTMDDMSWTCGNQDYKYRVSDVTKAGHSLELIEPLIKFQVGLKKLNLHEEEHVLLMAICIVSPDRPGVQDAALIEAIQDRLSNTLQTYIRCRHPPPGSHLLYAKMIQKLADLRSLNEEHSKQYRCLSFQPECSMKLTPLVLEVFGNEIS
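FP read-out; VDR + SRC2-3 coactivator peptide; 23 nl compound by pintool; 2 h RT incubation; reagents held at 4 deg C, protected from light.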
Active calls of the source: *; ? = inconclusive; & = joins results of further samples. On the % scale 0 is the no-effect control and ±100 the full control effect; potency means the concentration at half of the fitted maximal effect. An excerpt. The share of hits here may be higher or lower than overall.

SMILES	VDR inhibitor
CCOc1ccc(-c2nc(C#N)c(NCC(C)C)o2)cc1	5.7%
COc1ccc(-n2cnnc2SCC(=O)Nc2cccc([N+](=O)[O-])c2)cc1	28.7%
CCCC(O)(CCC)C(=O)NN(C(=O)CCl)c1cccc(C)c1	-0.8%
Cc1nc(-c2nnc(SCC(=O)Nc3ccc(C(F)(F)F)cc3)n2C)cs1	-15.4%
COc1c(Cl)cc(Cl)cc1C(=O)Nc1ccc(C(=O)O)cc1	-8.8%
Cn1c(=O)n(C)c2cc(NS(=O)(=O)c3ccc(F)cc3)c(NCc3ccccc3)cc21	20.7%
O=C(Nc1ncn[nH]1)C(F)(F)C(F)F	6.9%
CCOC(=O)c1c(C)oc2ccc(N(C(=O)Oc3ccccc3)S(=O)(=O)c3ccccc3)cc12	-9.5%
Cc1ccc(OCC(=O)Nc2cc(S(=O)(=O)N3CCCCC3)ccc2N2CCN(C)CC2)c(C)c1	8.8%
O=C(NCCCCc1ccccc1)c1cccc([N+](=O)[O-])c1	-16.2%
O=C(O)C(c1ccccc1)N1C(=O)/C(=C\c2ccc(-c3ccccc3Cl)o2)SC1=S (centres undefined)	50.1µM*
Cc1ccnc(N2C(=O)c3ccccc3C2Nc2ccccc2Cl)c1 (centres undefined)	3.7%
C[C@@H]1C(=O)N(S(=O)(=O)c2ccc([N+](=O)[O-])cc2)[C@H]1c1ccccc1	?
O=C(c1ccccc1)C(C(=O)N1CCc2ccccc2C1)n1ccccc1=O (centres undefined)	-2.8%
Cc1ccc(S(=O)(=O)N(CC(=O)Nc2cccc(C(F)(F)F)c2)C(=O)N2CCN(C)CC2)cc1	-8.7%
CNC(=O)C(C#N)(Cc1cc(C(C)=O)ccc1OC)Cc1cc(C(C)=O)ccc1OC	-6.7%
C=CCOc1cccc(C2C(C(=O)c3ccco3)=C(O)C(=O)N2Cc2ccco2)c1 (centres undefined)	-23.8%
CC(=O)N=c1sccn1CC(O)c1ccc(Br)cc1 (centres undefined)	-24.9%
O=C(NCC(c1cccnc1)N1CCN(c2ccccc2F)CC1)C(=O)Nc1ccc(F)cc1F (centres undefined)	12.4%
Cc1cc(C)n(S(=O)(=O)c2ccccc2[N+](=O)[O-])n1	-8.1%
COc1ccc(C)cc1NC(=O)Cn1c(=O)oc2ccccc21	-9.3%
CCCCN(C(=O)CNC(=O)c1cccs1)C(C(=O)NC1CCCC1)c1ccncc1 (centres undefined)	4.5%
O=C(COC(=O)/C=C/c1ccccc1[N+](=O)[O-])Nc1ccc2[nH]c(=O)[nH]c2c1	13.3%
COc1ccc(C(C)=O)cc1CSc1nnc(C)n1-c1ccccc1	-3.7%
NC(=O)C1CCN(C(=O)COc2ccc(S(=O)(=O)NC3CCCC3)cc2)CC1	13.1%
CCOC(=O)c1[nH]c2c(c1Cc1ccccc1)C(=O)CC(c1ccccc1)C2 (centres undefined)	-10.7%
CCCCNC(=O)Nc1nnc(SCC(=O)OCC)s1	-3.0%
C=C1CC/C=C(\C)CC[C@@H]2[C@@H]1CC2(C)C	1.9%
COc1cc(SC)ccc1C(=O)Nc1ccc(Br)cn1	-10.2%
CN(C)N=Nc1ccc(S(=O)(=O)/N=C(\O)c2ccccc2)cc1	-12.1%
O=C(Cn1cnc2c(nnn2Cc2ccc(F)cc2)c1=O)NCC1CCCO1 (centres undefined)	3.8%
CC1=C([N+](=O)[O-])C(c2ccc(Cl)cc2)NC(=O)N1C (centres undefined)	?
CCOc1ccccc1NC(=O)N1CCCC1C(=O)NCc1cccs1 (centres undefined)	2.3%
O=C(CN(C(=O)c1csnn1)c1ccc(Br)cc1)NC1CCCC1	?
CCC(=O)Nc1cc(Cl)ccc1N1CCN(C(=O)CC)CC1	-8.1%
CC1Cn2c(nnc2-c2cccs2)S1 (centres undefined)	-10.0%
COc1cccc(Nc2ncc3nc(-c4ccc(Cl)cc4)c(=O)n(CCC#N)c3n2)c1	-5.1%
CCOC(=O)N1CCN(C(=O)c2ccccc2Oc2ccccc2)CC1	1.5%
c1ccc2c(N3CCNCC3)nc(-c3ccc4c(c3)OCO4)nc2c1	0.3%
Nc1cc(Cl)c(N)cc1Cl	-8.0%
O=c1c(-c2cc(F)cc(F)c2)nc2cncnc2n1-c1ccccc1	-1.9%
O=C(N/N=C/C=C\c1ccccc1[N+](=O)[O-])c1cc(-c2ccccc2)nc2ccccc12	-18.9%
O=C(CCS(=O)(=O)c1ccc(Br)cc1)NCc1ccc(F)cc1	?
CC(OC(=O)/C=C/c1cccs1)C(=O)NC1CCCCC1C (centres undefined)	3.9%
CCOc1ccc(CCNC(=O)CCCn2nc(C)c3sc4ccccc4c3c2=O)cc1	6.4%
COCC(=O)Nc1nc2ccc(C)cc2s1	13.7%
O=C(Nc1ccccc1)C1=C[C@H](c2ccccc2)C[C@H](OCCCCO)O1	-17.9%
[O-][n+]1cccc2ncc3cscc3c21	14.6%
COC(=O)C1=C(O)/C(=C\c2cc(C)n(-c3ccccc3C)c2C)N=C1C	21.3%
Cc1cc(Br)ccc1NC(=O)C1CCN(S(=O)(=O)c2cccc3nsnc23)CC1	7.9%
COc1cc(Nc2nc(SCc3ccccc3Cl)nc3ccccc23)cc(OC)c1	2.5%
CC(=O)Nc1ccc(NC(=O)COC(=O)Cn2cnc3ccccc32)cc1	-8.8%
COc1ccc(C(=O)N2CCN(C(=O)Cc3ccccc3)CC2)cc1OC	-3.5%
COc1ccc(-c2noc(COC(=O)c3ccco3)n2)cc1OC	8.0%
Cc1ccc(C)c(Cn2c(=O)n(Cc3ccco3)c(=O)c3oc4ccccc4c32)c1	-6.4%
S=C(NCC1CCCO1)NC1CCCC1 (centres undefined)	0.0%
Cc1nc(C)c(-c2ccc(SCC(=O)Nc3cccc(Cl)c3C)nn2)s1	-4.8%
CCOc1cc(N2CCOCC2)c(OCC)cc1NC(=O)COC(=O)/C=C/c1ccc(OC(F)F)cc1	-14.5%
CCCCn1c(N)c(N(CCOC)C(=O)c2cc(S(=O)(=O)N3CCOCC3)ccc2F)c(=O)[nH]c1=O	3.2%
CCN(CC)CCCCOc1ccccc1OC	19.0%

Going on with the list.
SMILES	VDR inhibitor
COc1ccc(CCCC(=O)NC(C)c2ccccc2)cc1 (centres undefined)	-4.1%
O=C(Nc1cn(-c2ccccc2)nc1-c1ccc(Cl)cc1)c1ccccc1	-7.8%
C=C(C)c1cccc(C(C)(C)NC(=O)NC2CCCC2)c1	-23.9%
CC(Oc1ccc(Cl)cc1Cl)c1ccn[nH]1 (centres undefined)	-3.4%
CCN(CC)CCCNC(=O)C1c2ccccc2C(=O)N(CCOC)C1c1ccc(F)cc1 (centres undefined)	-21.3%
CCCCNC(=O)COC(=O)CCC(=O)c1ccc(Cl)cc1	?
CNC(CC(=O)c1ccc([N+](=O)[O-])cc1)C(Cl)(Cl)Cl (centres undefined)	17.8µM*
CCCCCCCNC(=O)c1cc(-c2ccncc2)nc2ccccc12	3.0%
O=C(Nc1ccccc1Cl)N1CCN(c2ncccn2)CC1	3.8%
Cc1ccc(/C([O-])=C(/C(=S)NCc2ccc3c(c2)OCO3)[n+]2ccc(N(C)C)cc2)c(C)c1	-7.6%
COc1ccc2c(c1)C(c1ccc(N3CCOCC3)cc1)=NNC(c1cccnc1)=N2	-1.8%
NNC(=O)c1csc(-c2ccccc2)n1	-14.9%
Cc1ccc(C)c(N2CCN(CC3CC=CCC3)CC2)c1 (centres undefined)	1.9%
CS(=O)(=O)c1ccccc1C(=O)Nc1ccc(S(=O)(=O)N2CCCC2)cc1	10.4%
O=C(CNC(=O)c1cccnc1)N/N=C/c1cccnc1	-11.4%
CCOC(=O)c1ccc(NC(=O)NC2CC3CCC(C2)N3Cc2nnnn2C(C)(C)C)cc1 (centres undefined)	-12.0%
Cn1c(=O)c([N+](=O)[O-])c(NCC2CCCO2)c2ccccc21 (centres undefined)	0.1%
Cc1cccc(CNC(=O)C2CCN(c3nc4ccc(Cl)cc4[nH]3)CC2)c1	6.5%
Cc1ccc(S(=O)(=O)Nc2cc(Cl)ccc2-n2cncn2)cc1	8.4%
COC(=O)c1ccccc1NC(=O)c1cc(-c2ccc(Cl)cc2)on1	-7.1%
Cc1ccc(-n2c(=O)[nH]c3sc4c(c3c2=O)CCCC4)cc1	-17.1%
C=CCOC(=O)C1=C(C)NC(SC)=C(C#N)C1c1cccs1 (centres undefined)	2.3%
COc1ccc2cc(CCOC3CCCCO3)ncc2c1 (centres undefined)	0.7%
COc1ccc(CNc2nc(Cl)nc3nc[nH]c23)cc1	-3.8%&-0.5%
COc1ccc(-c2n[nH]c(=S)nc2-c2ccc(OC)cc2)cc1	-17.3%
Cc1ccccc1CC(=O)N1CCCC(CNC(=O)c2ccc(F)cc2)C1 (centres undefined)	-4.7%
Cc1ccc(NC(=O)COC(=O)CNC(=O)c2cccc([N+](=O)[O-])c2)cc1S(=O)(=O)N1CCCCCC1	6.6%
Cc1cccc(OCC(=O)NCCNC(=O)c2ccccn2)c1	-2.4%
COc1ccc(NC(=O)CSc2nnc(Cc3cccn3C)n2-c2ccc(F)cc2)cc1	1.8%
Cc1ccc(S(=O)(=O)N2CCc3c2cc([N+](=O)[O-])cc3[N+](=O)[O-])cc1	?
c1nc2nc3c(c(N4CCOCC4)n2n1)CCCC3	5.2%
COc1ccc(NC(=O)CN(c2cc(C)cc(C)c2)S(=O)(=O)c2c(C)noc2C)cc1OC	-8.8%
CCOc1ccccc1N=Cc1c(O)c2ccccc2oc1=O	12.2%
CCOC(=O)Cn1ncc(-c2ccccc2)c1N	-11.1%
Cc1ccc(-c2cc(C(=O)NN=C3CCCC3)c3ccccc3n2)cc1	?
COc1ccc(N2C(=O)C(CC(=O)O)S/C2=N\N=C\c2cccs2)cc1 (centres undefined)	4.0%

In the list so far, these have a nitro group on carbon:
SMILES	VDR inhibitor
COc1ccc(-n2cnnc2SCC(=O)Nc2cccc([N+](=O)[O-])c2)cc1	28.7%
O=C(NCCCCc1ccccc1)c1cccc([N+](=O)[O-])c1	-16.2%
C[C@@H]1C(=O)N(S(=O)(=O)c2ccc([N+](=O)[O-])cc2)[C@H]1c1ccccc1	?
Cc1cc(C)n(S(=O)(=O)c2ccccc2[N+](=O)[O-])n1	-8.1%
O=C(COC(=O)/C=C/c1ccccc1[N+](=O)[O-])Nc1ccc2[nH]c(=O)[nH]c2c1	13.3%
CC1=C([N+](=O)[O-])C(c2ccc(Cl)cc2)NC(=O)N1C (centres undefined)	?
O=C(N/N=C/C=C\c1ccccc1[N+](=O)[O-])c1cc(-c2ccccc2)nc2ccccc12	-18.9%
CNC(CC(=O)c1ccc([N+](=O)[O-])cc1)C(Cl)(Cl)Cl (centres undefined)	17.8µM*
Cn1c(=O)c([N+](=O)[O-])c(NCC2CCCO2)c2ccccc21 (centres undefined)	0.1%
Cc1ccc(NC(=O)COC(=O)CNC(=O)c2cccc([N+](=O)[O-])c2)cc1S(=O)(=O)N1CCCCCC1	6.6%
Cc1ccc(S(=O)(=O)N2CCc3c2cc([N+](=O)[O-])cc3[N+](=O)[O-])cc1	?

Later entries:
SMILES	VDR inhibitor
CCOC(=O)C1(CCOc2ccccc2)CCN(Cc2cnc(C)s2)CC1	2.2%
Cn1nc(C(=O)NCCN2CCOCC2)c2ccccc2c1=O	-2.8%
Cc1nnc(N2CCC(C(=O)NCc3ccc(N(C)C)cc3)CC2)c2nn(-c3ccccc3)c(C)c12	-0.7%
O=c1nc2n(c3sc4c(c13)CCCC4)C(CBr)CS2 (centres undefined)	?
COc1ccc(OC)c(C(=O)CSc2nnc(Cc3cccs3)n2CCc2ccccc2)c1	-7.4%
CC(C)[C@H](NS(=O)(=O)c1cccc(Cl)c1)C(=O)OCC(=O)N1CCN(c2ccccc2)CC1	4.7%
Cc1cc(NC(=O)c2noc3c2CCCC3)n(-c2ccccc2)n1	9.1%
COc1cccc(CNC(=O)CCC2CCCN(c3cc(C)nc(N)n3)C2)c1 (centres undefined)	-5.1%
COc1cc2c(cc1OC)CN(C(=O)CSc1n[nH]c(N)n1)CC2	9.2%
COc1cccc(C(=O)Nc2nc3nc(C)c(Cc4ccccc4)c(=O)n3[nH]2)c1	11.3%
Cc1ccc2nc3c(nc2c1)-c1ccccc1C3=O	-6.0%
Cc1ccccc1-c1nc(NCCN2CCOCC2)c2ccccc2n1	?

The last 2 entries of the part before lead into the next.
SMILES	VDR inhibitor
Cc1ccc2nc3c(nc2c1)-c1ccccc1C3=O	-6.0%
Cc1ccccc1-c1nc(NCCN2CCOCC2)c2ccccc2n1	?
CC(C)Nc1nc(NC(C)C)nc(C(N)=O)n1	-2.0%
CC(=O)NC(NC(=S)Nc1ccc(N=Nc2ccccc2C)cc1C)C(Cl)(Cl)Cl (centres undefined)	-12.6%
CC1(C2CC2)NC(=O)N(CC(=O)Nc2ccccc2F)C1=O (centres undefined)	-9.3%
C#CCOCCOCCOCCNc1nc(N2CCN(C(=O)CCCCCCCCCCNC(=O)[C@@H](CCC(=O)O)n3cc(CCCCCN)nn3)CC2)nc(N2CCN(C(=O)CCCCCCCCCCNC(=O)[C@H](CCCCN)n3cc(C[C@@H](C)CC)nn3)CC2)n1	10.3%
C[C@@H](NC(=O)c1[nH]cnc1C(=O)Nc1ccon1)c1ccccc1	-7.5%
O=C(CCn1cnc(-c2ccccc2)c1-c1ccccc1)N/N=C/c1ccc(O)cc1	-8.7%
CC(C)CCN1CC(=O)N2Cc3[nH]c4ccccc4c3C[C@H]2C1=O	21.1%
CSc1nsc(SC)c1NC(=O)N1CCCCC1	-14.0%
CCCCCn1c(=O)[nH]c2cc(C(=O)N3CCN(c4ccc(C(C)=O)cc4)CC3)ccc2c1=O	1.2%
COc1ccc(S(=O)(=O)N2CCCCCC2)cc1NC(=O)CN1C(=O)NC(C)(c2ccc(C)cc2)C1=O (centres undefined)	0.8%
C=CCn1c(CNc2ccc(C)cc2)nnc1SCC(=O)N/N=C/c1ccc(O)cc1	2.7%
CCc1nn(CC(=O)N2CCN(c3cccc(C)c3)C(C)C2)c(=O)c2cc3sccc3n12 (centres undefined)	3.9%
COC(=O)c1cc(S(=O)(=O)N2CCN(c3cc(Cl)ccc3C)CC2)c[nH]1	-2.4%
COc1ccc(Cl)cc1NC(=S)NCc1ccccn1	0.3%
COC(=O)[C@@]1(Cc2ccccc2)[C@H]2C(=O)N(Cc3ccccc3)C(=O)[C@H]2[C@H]2CN=C(SCc3ccc(C#N)cc3)N21	-1.9%
